RE007 growth inh = qHTS Assay for Inhibitors of the HIV-1 protein Vpr; S. pombe RE007 Vpr strain, BacTiter-Glo ATP luminescence, 24 h; control for the full effect not named in the record; Potency, µM (highest dose often 92.2 µM), for the others: top-dose activity change, negative = less growth; 360,000 compounds, 0.21% hits; AID 651644, 2012; active = well fitted falling curve with a large enough effect; inconclusive = small, poorly fitted or top-dose-only effect; inactive = no such curve, though single readings can be large or run the other way;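 note: % is set by controls: 0 for no effect and ±100 for the full control effect; nearly all actives have a fitted effect of over 50% in size; the assay follows cell death caused by Vpr and the record does not say whether a fall means rescue or toxicity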
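Fission yeast strain RE007, carrying one chromosomally integrated HIV-1 vpr copy, was seeded at OD 0.01 in PMG+AL medium with 23 nL pinned compound. After 24 h at 30 °C and 99% humidity, viability was read by BacTiter-Glo luminescence.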
SARS PLP yeast = qHTS of Yeast-based Assay for SARS-CoV PLP; S. cerevisiae expressing SARS-CoV PLpro, growth rescue; control for the full effect not named in the record; Potency, µM (series often up to 32.9 µM), for inactives: at the top dose activity, positive = growth rescue; 330,000 compounds, 0.19% hits; note: 0% is about no effect; nearly all actives have a fitted effect of over 55% in size; growth read by luminescence after 48 h
NS1 inh = qHTS Assay for Inhibitors of Influenza NS1 Protein Function; AID 2326, 2010; 270,000 compounds, 0.4% hits; S. cerevisiae slowed by influenza A NS1, growth recovery by OD600; Potency, µM (highest dose often 46.1 µM), without a hit: top-dose activity, positive = more growth; note: actives are rising curves; nearly all actives have a fitted effect of over 50% in size
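Recovery from NS1-induced slow growth read by OD600 in budding yeast switched to galactose assay medium (pH 6.0, -URA) at 1:100 dilution. Compound 23 nl per well; the matching strain lacking NS1 serves as control.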
Cruzain noTriton = qHTS Assay for Promiscuous and Specific Inhibitors of Cruzain (without detergent); Potency, µM, without a hit: max response, negative = inhibition, hits mostly inhibitors; Cruzipain (Trypanosoma cruzi), P25779; purified cruzain, Z-FR-AMC fluorescence, no detergent; 200,000 compounds, 2.3% hits; active = well fitted curve in the direction sought with a large enough effect; inconclusive = small, poorly fitted or top-dose-only effect, or another doubt; inactive = no such curve, though single readings can be large; an effect the other way counts as inactive or inconclusive;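 note: plate controls were enzyme without inhibitor for no effect and buffer without enzyme for full effect; nearly all actives have a fitted effect of over 40% in size; top concentration of the series not given in the record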
Target sequence (P25779 123-467 limits assumed): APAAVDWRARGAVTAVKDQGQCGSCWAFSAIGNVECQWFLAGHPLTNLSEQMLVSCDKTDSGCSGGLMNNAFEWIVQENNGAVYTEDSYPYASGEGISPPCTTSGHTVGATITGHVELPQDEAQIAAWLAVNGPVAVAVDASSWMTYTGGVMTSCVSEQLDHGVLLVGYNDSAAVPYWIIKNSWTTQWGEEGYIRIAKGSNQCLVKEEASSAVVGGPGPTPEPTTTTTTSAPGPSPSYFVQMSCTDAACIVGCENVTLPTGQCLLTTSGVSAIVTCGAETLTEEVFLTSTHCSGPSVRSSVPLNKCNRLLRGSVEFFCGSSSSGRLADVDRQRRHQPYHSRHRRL
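Purified cruzain at 1.5 nM, pre-incubated 15 min with compound at room temperature in 100 mM sodium acetate pH 5.5, 5 mM DTT, 0.00005% Triton X-100. Reaction started with 2 uM Z-FR-AMC; AMC fluorescence increase over 60 s gives rate.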
Lassa entry inh = qHTS for Inhibitors of binding or entry into cells for Lassa Virus; Lassa virus pseudotype entry inhibition, cell reporter; control for the full effect not named in the record; AID 540256, 2011; Potency, µM (series often up to 37.9 µM), for inactives: at the highest dose activity change, negative = inhibition, most hits filed as inhibitors; 300,000 compounds, 1.2% hits; active means well fitted inhibition curve with a large enough effect; inconclusive means small, poorly fitted or top-dose-only effect, or effect the other way; inactive means flat fitted curve, though single readings scatter; tested in HEK293 cells; note: % is set by controls: 0 for no effect and ±100 for the full control effect; nearly all actives have a fitted effect of over 50% in size; luciferase read-out
MARV entry inh = qHTS for inhibitors of binding or entry into cells for Marburg Virus | Potency, µM (titrated, usually from 37.8 µM), inactives show at the top dose activity change, negative = inhibition, usual class: inhibitors | Marburg virus pseudotyped entry inhibition, cell reporter; control for the full effect not named in the record; about a third of the inactives were read at about 46 µM | 300,000 compounds, 1.8% hits; active = well fitted inhibition curve with a large enough effect; inconclusive = small, poorly fitted or top-dose-only effect, or effect the other way; inactive = flat fitted curve, though single readings scatter; tested in HEK293 cells; about a fifth of its hits are not listed in these tables; note: % is set by controls: 0 for no effect and ±100 for the full control effect; luciferase read-out
Cruzain inh Det = qHTS Assay for Promiscuous and Specific Inhibitors of Cruzain (with detergent); 200,000 compounds, 0.43% hits; AID 1478, 2009; Cruzipain (Trypanosoma cruzi), P25779; Potency, µM, without a hit: max response, negative = inhibition, actives largely listed as inhibitors; purified cruzain, Z-FR-AMC fluorescence, 0.01% Triton; active = well fitted curve in the direction sought with a large enough effect; inconclusive = small, poorly fitted or top-dose-only effect, or another doubt; inactive = no such curve, though single readings can be large; an effect the other way counts as inactive or inconclusive;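 note: plate controls were neutral wells for no effect and buffer without enzyme for full effect; nearly all actives have a fitted effect of over 40% in size; top concentration of the series not given in the record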
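15 min RT preincubation of 1.5 nM cruzain with compound, then 2 uM Z-FR-AMC added; kinetic AMC fluorescence, 60 s delta. Triton X-100 0.01%, pH 5.5.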
StopGo reporter = High Throughput Screening for Foot and Mouth Disease Virus Antivirals; 410,000 compounds, 1.2% hits; Potency, µM (titrated, usually from 57.9 µM), without a hit: at the top dose signal change, negative = less light; human cells with a luciferase reporter of 2A StopGo recoding; control for the full effect not named in the record; active = well fitted falling curve with a large enough effect; inconclusive = small, poorly fitted or top-dose-only effect; inactive = no such curve, though single readings can be large or run the other way; tested in HEK293T cells; note: % is set by controls: 0 for no effect and ±100 for the full control effect; nearly all actives have a fitted effect of over 45% in size; luciferase light after 4 h
* marks the source's active call; other numbers are inactive results; ? = inconclusive; / = not tested or not shown; & = joins results of further samples; [ ] = another dose, or the depositor's remark. Unless noted, calls come from the whole dose curve; as a rule, active means well fitted rising curve with a large enough effect; inconclusive means small, poorly fitted or top-dose-only effect; inactive means no such curve, though single readings can be large or run the other way. Potency is the fitted concentration of half-maximal effect.

Values run as follows: RE007 growth inh	SARS PLP yeast	NS1 inh	Cruzain noTriton	Lassa entry inh	MARV entry inh	Cruzain inh Det	StopGo reporter
Cc1nc(NCCOc2ccccc2)sc1C(=O)Nc1ccccc1
    -9%	-1%	-11%	/	/	/	/	0%
O=C(OCC(=O)N(C1CCCCC1)C1CCCCC1)c1ccc(O)cc1
    37%	1%	3%	/	15%[46.1 µM]	4%[46.1 µM]	/	-11%
COC(=O)c1ccc(Cl)cc1NC(=O)N1CC2CCCN2c2ccccc21 (stereo unspecified)
    /	/	/	-24%	-12%[46.1 µM]	/	-3.1%	-14%
Cc1nc2ccc(C(=O)N3CCN(c4ccccn4)CC3)cc2s1
    -22%	1%	-1%	1%	9%	?	8.2%	-7%
O=S(=O)(NC1=NCCCCC1)c1ccc(F)cc1F
    0%	-2%	/	/	?	4%	/	0%
CC1CC(C)CN(C(=O)C2CCN(S(=O)(=O)c3ccc4c(c3)CC(C)N4C(=O)C3CC3)CC2)C1 (stereo unspecified)
    12%	-2%	5%	/	17%[46.1 µM]	-12%[46.1 µM]	/	-17%
O=C1CSC(c2ccccc2)N1c1ccc(F)cc1F (stereo unspecified)
    3%	2%	5%	/	?	-14%	/	1%
CN1CCN(c2ccccc2NC(=O)c2cccc([N+](=O)[O-])c2)CC1
    -3%	-1%	4%	/	/	/	/	-3%
COC(=O)c1ccc(N2CCN(S(=O)(=O)c3ccc4ccccc4c3)CC2)c([N+](=O)[O-])c1
    6%	-2%	21%	?	-13%	-11%	-0.1%	-20%
Cc1cc(N2CCC(C)CC2)n2nc(C)c(-c3ccccc3)c2n1
    3%	8%	3%	1%	9%	8%	-21%	-24%
CC(C)(C)c1ccc(NC(=O)c2c(F)cccc2Cl)cc1
    ?	-2%	-1%	/	/	/	/	43%[activator]
Cc1ccc(OCCn2cc(/C(N)=N/O)c3ccccc32)cc1C
    6%	2%	10%	?	3%	-27%	-1.0%	?
O=C(CN1CCN(c2nc(-c3ccccc3)cs2)CC1)NNC(=O)c1ccc(Br)cc1
    -4%	-2%	-24%	-24%	-19%	5%	0.1%	/
CC(C)c1ccc(N2C(=O)NC(=O)/C(=C/C=C/c3ccco3)C2=O)cc1
    13%	-17%	18%	12%	?	?	-4.7%	13µM*
CSc1ccc(CCNC(=O)CCc2nnc3ccc(N4CCCCC4)nn23)cc1
    6%	0%	-10%	/	/	/	/	-14%
COC(=O)C(NC(=O)c1ccccc1)c1ccccc1 (stereo unspecified)
    -10%	10%	0%	1%	-4%	28%	-2.8%	28%
CCCNC(=O)c1ccc(Cn2c(SCC(N)=O)nc3ccccc3c2=O)cc1
    /	/	/	-2%	-23%[46.1 µM]	/	-0.5%	4%
Cc1cc(C)c2oc(-c3cccc(NC(=O)c4ccc(F)cc4)c3)nc2c1
    -4%	-4%	6%	?	-8%	18%	0.4%	-16%
COc1cc([N+](=O)[O-])c2ncsc2c1
    0%	14%	-6%	-2%	20%	3%	-1.7%	-3%
O=C(N1CCCCCC1)N1CCN(S(=O)(=O)c2cccc([N+](=O)[O-])c2)CC1
    5%	/	/	/	-16%	-11%	/	?
COc1ccc(/C=C(\NC(=O)c2cccs2)C(=O)Nc2ccc(C)cc2)cc1OC
    -5%	21%	8%	?	0%	9%	-7.3%	-13%
COC(=O)c1cc2sccc2n1CC(=O)Nc1cccc(SC)c1
    -6%	/	13%	-30%	-3%	-2%	-1.7%	/
CCC(=O)N1CCc2cc(CNC(=O)c3ccccc3C)ccc21
    /	/	/	0%	1%[46.1 µM]	/	2.3%	32%[activator]
COC(=O)c1sccc1NC(=S)N1CCC(C)CC1
    -14%	-3%	0%	-4%	-7%	-21%[46.1 µM]	-6.0%	19%
CCC(C)n1cnc2c(c1=O)c1nc3ccccc3nc1n2Cc1ccc(OC)cc1 (stereo unspecified)
    0%	-2%	-40%	?	-17%	-26%	-6.2%	-28%
CCc1nc(N2CCN(C(=O)c3ccccc3)CC2)c2c3c(sc2n1)CCCC3
    17%	-1%	-2%	/	?	?	/	?
Cc1cc(S(=O)(=O)Nc2cc3c(cc2N2CCOCC2)n(C)c(=O)c(=O)n3C)ccc1F
    /	/	/	1%	0%[46.1 µM]	/	-4.0%	4%
CC(C)(C)C1CCc2c(sc(NC(=O)c3noc4c3CCCC4)c2C#N)C1 (stereo unspecified)
    /	/	/	-7%	?	-16%[46.1 µM]	-2.9%	9%
CCCCS(=O)CC(O)COCC (stereo unspecified)
    12%	8%	-1%	0%	-3%	9%	-1.2%	12%
COc1cc(C)ccc1Oc1ncnc(N)c1[N+](=O)[O-]
    3%	-2%	0%	/	/	/	/	-17%

Just SARS PLP yeast and Lassa entry inh, for 3 of the compounds above:
| SMILES | SARS PLP yeast | Lassa entry inh |
| --- | --- | --- |
| Cc1cc(S(=O)(=O)Nc2cc3c(cc2N2CCOCC2)n(C)c(=O)c(=O)n3C)ccc1F | / | 0%[46.1 µM] |
| CC(C)(C)C1CCc2c(sc(NC(=O)c3noc4c3CCCC4)c2C#N)C1 (stereo unspecified) | / | ? |
| CCCCS(=O)CC(O)COCC (stereo unspecified) | 8% | -3% |

Additional structures follow:
Values run as follows: RE007 growth inh	SARS PLP yeast	NS1 inh	Cruzain noTriton	Lassa entry inh	MARV entry inh	Cruzain inh Det	StopGo reporter
O=C(c1cc(-c2ccncc2)nc2ccccc12)N1CCN(c2ccccc2O)CC1
    -2%	-1%	-4%	/	/	/	/	-1%
COc1cc2c(cc1OC)C1=C(C#N)COCN1CC2
    5%	2%	13%	-1%	22%	-2%	-1.7%	-7%
O=S(=O)(Nc1ccc(-c2ccc(NS(=O)(=O)c3ccccc3)cc2)cc1)c1ccccc1
    -6%	/	/	/	?	-3%[46.1 µM]	/	15%
Cc1cc(C)nc(SCC(=O)Nc2ncc(Cc3cccc(Cl)c3)s2)n1
    5%	-8%	16%	?	?	-36%	-2.6%	-29%
Cc1ccc(C)c(NC(=O)CSc2nnc([C@@H](N)Cc3c[nH]c4ccccc34)o2)c1
    17%	5%	?	25µM*	0%	-2%&-2%	?	1%
Cc1ccc(C(=O)NCCCNC(=O)c2cccnc2)cc1
    3%	11%	2%	/	-4%[46.1 µM]	-1%[46.1 µM]	/	-6%
CCOc1ccc(NC(=O)CN(C)C(=O)c2ccc(N3CCCC3)c([N+](=O)[O-])c2)cc1OCC
    -16%	5%	/	/	-15%	?	/	-5%
COc1cc(-c2noc(C3CC(=O)N(c4ccc5c(c4)OCCO5)C3)n2)cc(OC)c1OC (stereo unspecified)
    /	/	/	?	-20%[46.1 µM]	/	-5.3%	-8%
CC(C)(C)c1ccc(S(=O)(=O)NCc2ccc(C(=O)NCc3ccccn3)cc2)cc1
    8%	6%	-6%	19%	-13%	-5%	-2.5%	-3%
CNC(=O)c1ccc(NC(=O)c2nsc3ccccc23)cc1
    /	/	/	-11%	8%[46.1 µM]	?	-8.0%	-35%
CC(C)(C)c1csc(NC(=O)Cn2cnc3ccccc3c2=O)n1
    16%	-8%	-173%	10%	-2%	-10%	-3.7%	-21%
CC(C)CCNC(=O)c1c(CSc2ccccc2)noc1C(=O)NCc1ccccc1
    -12%	1%	-10%	/	/	/	/	-15%
O=P(Nc1cccnc1)(Oc1ccccc1)Oc1ccccc1
    -8%	-4%	14%	6%	10%	?	-0.5%	-7%
COc1ccc(OC)c(S(=O)(=O)N2CCC(C(=O)NCC3CCCO3)CC2)c1 (stereo unspecified)
    22%	?	-3%	4%	-5%	12%	4.3%	0%
CCOC(=O)c1nc2nc(C)c(Cl)c(=O)n2[nH]1
    3%	1%	8%	5%	-14%	5%&5%	1.9%	2%
O=C(COc1ccccc1)Nc1ccc(CSc2ccccc2)cc1
    11%	1%	5%	?	?	?	3.7%	-9%
COc1ccc(CNC(=O)[C@H](NC(=O)C2CCN(C(=O)[C@@H](N)CCSC)CC2)C(C)C)cc1
    -4%	8%	5%	/	/	/	/	-13%
Cc1ccc(N=C/C(C(=O)C(F)(F)F)=C(\O)c2cccs2)cc1
    -18%	0%	-31%	0%	-26%	?	-5.2%	16%
CN1CCN(c2oc(-c3ccccc3F)nc2S(=O)(=O)c2ccc(Cl)cc2)CC1
    9%	-5%	-11%	/	?	?	/	39%[activator]
CCC(=O)Nc1cc2c3c(c1)CCC(=O)N3CCC2
    1%	1%	-2%	/	/	/	/	-7%
Fc1ccc(/C=N/Nc2nccnc2Cl)cc1
    -27%	-8%	-17%	/	/	/	/	52%[activator]
CC(C)c1[nH]nc2c1C(Cc1ccccc1)C(C#N)=C(N)O2 (stereo unspecified)
    22%	-2%	-4%	0%	13%	-9%	1.3%	4%
Cc1nn(-c2ccc(F)cc2)c(Cl)c1/C=C(/CCC(=O)O)c1nc2ccccc2s1
    18%	/	/	/	-17%	13%	/	6%
NNC(=O)C(=O)Nc1ccc(Cl)c(Cl)c1
    13%	0%	3%	/	?	14%[46.1 µM]	/	-3%

One compound at a time, as listed above. Order of values: RE007 growth inh | SARS PLP yeast | NS1 inh | Cruzain noTriton | Lassa entry inh | MARV entry inh | Cruzain inh Det | StopGo reporter
Entry for `O=S(=O)(Nc1ccc(-c2ccc(NS(=O)(=O)c3ccccc3)cc2)cc1)c1ccccc1` : -6% | / | / | / | ? | -3%[46.1 µM] | / | 15%
Entry for `CCOC(=O)c1nc2nc(C)c(Cl)c(=O)n2[nH]1` : 3% | 1% | 8% | 5% | -14% | 5%&5% | 1.9% | 2%

Bioassay records as filed in PubChem.
